# Screens (PubChem BioAssay)
# Rango dissoc inh: qHTS Assay for Inhibitors of RanGTP induced Rango (Ran-regulated importin-beta cargo) - Importin beta complex dissociation | Biochemical FRET Rango-importin beta, RanGTP-induced dissociation | Potency, µM (highest dose often 46.1 µM), without a hit: at the top dose activity change, negative = inhibition | actives 0.071% (n = 340,000) | Snurportin-1 (Homo sapiens) + GTP-binding nuclear protein Ran (Homo sapiens) + Importin …; active means falling FRET ratio curve, often poorly fitted, with flat reads before Ran was added; inconclusive means other falling curves, or compound fluorescence or quenching; inactive means flat or rising ratio curve;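 note: potency is the fitted concentration of half-maximal effect; % of control where 0% means no effect; nearly all actives have a fitted effect of over 45% in size; -100% = wells without RanGTP and RCC1; the record marks most hits as doubtful in a second field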
#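 Recombinant Rango FRET biosensor (EYFP–snurportin 1 IBB–cerulean CFP10) at 0.1 uM premixed with 0.25 uM importin beta in PBS, 1 mM DTT, 0.02% Tween-20, 0.1% BSA. Compound added 5 min; RanGTP-RCC1 (0.6 uM Ran, 2 mM GTP, 0.2 uM RCC1) then triggers release, read at 45 min.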
# GLA inh pH 4.5: qHTS Assay for Inhibitors of Human alpha-Galactosidase at pH 4.5 | Alpha-galactosidase A (Homo sapiens), P06280 | purified enzyme, 4-MU-alpha-Gal fluorescence, pH 4.5 | activity change, negative = inhibition, % at 105 µM | 230,000 tested, under 10 active | AID 1467, 2008; inconclusive = small, poorly fitted or top-dose-only inhibition, or a rising curve; inactive = flat fitted curve, though single readings scatter; no compound was filed as active;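 note: 0% = full activity with enzyme and -100% = basal without enzyme; dose as in the result columns while the protocol names 77 µM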
# Target sequence (P06280 whole entry, looked up): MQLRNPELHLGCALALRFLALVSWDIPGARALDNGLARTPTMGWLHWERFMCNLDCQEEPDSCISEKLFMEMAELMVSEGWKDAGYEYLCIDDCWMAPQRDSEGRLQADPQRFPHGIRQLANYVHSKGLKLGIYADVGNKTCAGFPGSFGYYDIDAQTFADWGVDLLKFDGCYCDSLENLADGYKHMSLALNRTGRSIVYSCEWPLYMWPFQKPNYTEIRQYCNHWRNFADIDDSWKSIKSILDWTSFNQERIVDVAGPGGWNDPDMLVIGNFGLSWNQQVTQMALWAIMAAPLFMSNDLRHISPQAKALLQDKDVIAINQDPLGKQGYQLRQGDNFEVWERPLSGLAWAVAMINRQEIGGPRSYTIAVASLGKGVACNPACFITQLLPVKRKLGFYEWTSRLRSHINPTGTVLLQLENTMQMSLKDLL
# Rango complex inh: qHTS Assay for Inhibitors of Rango (Ran-regulated importin-beta cargo) - Importin beta complex formation; Importin subunit beta-1 (Homo sapiens), Q14974; Rango CFP/YFP FRET sensor + importin beta, 45 min; Potency, µM (titrated, usually from 92.2 µM), without a hit: at the top dose inhibition of complex formation; actives 0.031% (n = 340,000); active = rising FRET ratio curve, often small or poorly fitted; inconclusive = mostly compound fluorescence or quenching in the first reads; inactive = flat curves in all reads;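 note: potency is the fitted concentration of half-maximal effect; 0% = DMSO wells and 100% = buffer wells lacking importin beta; nearly all actives have a fitted effect of over 15% in size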
#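 Inhibition scored from the CFP 486 nm/YFP 530 nm FRET ratio 45 min after adding 0.125 microM importin beta to 50 nM Rango biosensor preincubated 5 min with compound (room temperature, PBS with DTT, Tween-20, BSA). No-importin wells as positive control.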
# miR-21 reporter: qHTS Assay for Modulators of miRNAs and/orActivators of miR-21; HeLa miR-21 FLuc reporter, luciferase, 48 h; Potency, µM (top dose mostly 38.3 µM), without a hit: top-dose reporter change, positive = more light; 340,000 tested, under 10 active; active = well fitted rising curve with a large enough effect; inconclusive = small, poorly fitted or top-dose-only effect; inactive = no such curve, though single readings can be large or run the other way;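 note: % of control where 0% means no effect; miR-21 action dims this reporter so a rising signal means less miR-21 action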
#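 Compounds were titrated across several concentrations (up to approximately 40 uM) and incubated 48 hours with HeLa miR-21-FLuc reporter cells (miR-21 target sequence downstream of FLuc, endogenous miR-21). Readout was firefly luciferase luminescence after lytic detection reagent.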
# The depositor's hits bear a star; ? = inconclusive; / = not tested or not shown; & = joins results of further samples.
# The opening six entries, to show the layout:
Rango dissoc inh	GLA inh pH 4.5	Rango complex inh	miR-21 reporter	SMILES
-6%	/	-0.4%	0%	Cc1ccc(S(=O)(=O)Nc2c(C)cc(C)nc2Cl)cc1
/	-1	/	-15%	COc1ccc2nc(Nc3nc(CSc4nnc(C)s4)cc(=O)[nH]3)nc(C)c2c1
0%	-4	-3.6%	-2%	COc1cc(/C=N/NC(=O)c2ccccc2)ccc1OS(=O)(=O)c1ccccc1
0%	5	0.4%	-6%	Cc1ccc(NC(=O)CN2C(=O)NC3(CCC(C)CC3)C2=O)c(Cl)c1 (configuration not stated)
1%	-12	3.3%	3%	COc1ccc(CCN2C(=O)NC(NS(=O)(=O)c3ccc(N)cc3)(C(F)(F)F)C2=O)cc1OC (configuration not stated)
?	-11	?	-26%	CCc1ccc(C(=O)c2oc3nc(C)cc(C)c3c2N)cc1

# All compounds of this part, from the first entry:
Rango dissoc inh	GLA inh pH 4.5	Rango complex inh	miR-21 reporter	SMILES
-6%	/	-0.4%	0%	Cc1ccc(S(=O)(=O)Nc2c(C)cc(C)nc2Cl)cc1
/	-1	/	-15%	COc1ccc2nc(Nc3nc(CSc4nnc(C)s4)cc(=O)[nH]3)nc(C)c2c1
0%	-4	-3.6%	-2%	COc1cc(/C=N/NC(=O)c2ccccc2)ccc1OS(=O)(=O)c1ccccc1
0%	5	0.4%	-6%	Cc1ccc(NC(=O)CN2C(=O)NC3(CCC(C)CC3)C2=O)c(Cl)c1 (configuration not stated)
1%	-12	3.3%	3%	COc1ccc(CCN2C(=O)NC(NS(=O)(=O)c3ccc(N)cc3)(C(F)(F)F)C2=O)cc1OC (configuration not stated)
?	-11	?	-26%	CCc1ccc(C(=O)c2oc3nc(C)cc(C)c3c2N)cc1
5%	/	0.3%	/	Cn1c(N)c(C(=O)COC(=O)c2ccc(-c3ccccc3)cc2)c(=O)n(C)c1=O
5%	-3	1.0%	-1%	COc1cc(C=Nc2cccc([N+](=O)[O-])c2C)ccc1OC(C)=O
-9%	-11	-0.9%	-13%	CC(C)(C)SCCNC(=O)/C=C/c1ccc([N+](=O)[O-])cc1
5%	-5	0.1%	-11%	O=C(Cc1ccc([N+](=O)[O-])cc1)N1CCCCCC1
19%	4	-0.7%	-7%	Cc1cc(F)ccc1NCc1cccnc1
6%	1	3.6%	2%	CCCCOc1ccc(C(=O)N2CC(C)OC(C)C2)cc1 (configuration not stated)
7%	-8	1.7%	14%	Cc1ccc(NC(=O)c2ccc(F)c(S(=O)(=O)N3CCOCC3)c2)cc1F
13%	0	-0.1%	-10%	Cc1cccc(C)c1NC(=O)CSc1nnc(-c2ccoc2C)n1C
2%	6	0.9%	-18%	COc1cccc(NC(=S)NC(=O)c2c(Cl)c(C)nn2C)c1
-13%	-2	0.7%	-5%	Cc1cc(OCCN2CCCC2)ccc1[N+](=O)[O-]
16%	/	0.7%	2%	CCOC(=O)C1CCN(C(=O)CC(C)S(=O)(=O)c2ccc3c(c2)NC(=O)CO3)CC1 (configuration not stated)
-1%	/	-0.9%	/	Cc1ccc(NC(=O)c2ccc3c(=O)n4c(nc3c2)CCC4)cc1F
-16%	/	-0.1%	/	CC1=C[C@@H](C)[C@@H](c2ccccc2)OC1=O
0%	9	-0.7%	-25%	COC(=O)CCNC(=O)c1ccc2[nH]c(C)c(C)c2c1
0%	/	4.1%	-2%	CCOc1ccc(S(=O)(=O)n2c([N+](=O)[O-])cnc2C)c(C)c1C
7%	/	4.1%	15%	COc1cccc(CN2CCC(C(=O)Nc3ccc(Oc4cccnc4)cc3)CC2)c1
2%	/	-0.7%	2%	O=C(NCC1CC1)C1(S(=O)(=O)c2ccccc2)CC=CC1
-7%	5	0.3%	-49%	COCCNC(=O)c1sc2nc(-c3ccccc3)cn2c1C
-9%	8	2.0%	-31%	Cc1cccc(-c2c3c(=O)n(C)c(=O)n(C)c3cn2C(C)C)c1
-9%	-2	0.1%	-14%	O=C(c1ccc(-c2ccccc2)cc1)c1ccccc1C(=O)N1CCOCC1
11%	/	-0.4%	/	CCc1noc(C)c1C(=O)OCC(=O)N(CC)c1c(N)n(Cc2ccccc2)c(=O)[nH]c1=O
-12%	-10	-2.0%	20%	COc1ccc(N2CCN(CC(O)COCCOc3ccc(Br)cc3)CC2)cc1 (configuration not stated)
?	-14	2.1%	7%	COc1cccc(C(=O)Nn2c(-c3cccs3)nc3ccccc3c2=O)c1OC
-11%	/	2.2%	/	CC[N+](CC)(CC)CCC(O)(c1ccccc1)C1CCCCC1 (configuration not stated)
3%	3	-5.5%	-3%	COc1ccc(CN(Cc2ccco2)S(=O)(=O)c2ccc(S(=O)(=O)N3CCCC3)cc2)cc1
-13%	1	?	-29%	Cc1ccc2c(c1)c1c3n2CCN(C(=O)C2CC2)C3CCC1 (configuration not stated)
5%	1	0.1%	-13%	CS(=O)(=O)NCCSc1cc(C(F)(F)F)nc2ccccc12
-4%	?	-0.5%	-7%	CC(C)(C)C1=C(C#N)C(c2cc3c(cc2Br)OCO3)C(C#N)=C(N)O1 (configuration not stated)
-1%	/	-0.1%	/	COc1ccccc1NS(=O)(=O)c1ccc(/C=C/C(=O)N2CCN(C(C)=O)CC2)cc1
4%	-18	0.5%	-7%	CCOC(=O)N(C)c1ccc(C(O)(C(F)(F)F)C(F)(F)F)cc1
12%	-16	-0.6%	-1%	CC(NC(=O)CNC(=O)OCc1ccccc1)C(=O)N1CC(O)CC1C(=O)OCc1ccccc1 (configuration not stated)
-12%	/	?	/	CCN(C[C@H]1N[C@@](CC)(C(=O)OC)[C@H]2C(=O)N(C)C(=O)[C@@H]12)C(=O)Nc1ccc(Cl)cc1
3%	0	0.9%	1%	Cc1c(N)cccc1-n1cccc1
-3%	/	-3.7%	/	Cc1ccc(C(=O)Cc2ccccc2)cc1
?	1	?	-22%	O=S(=O)(/N=C(/Nc1ccccc1)c1ccccc1O)c1ccccc1
/	2	/	-4%	CCN(CC)CCCN1C(=O)C(=O)/C(=C(/O)c2ccc3c(c2)CC(C)O3)C1c1cccnc1 (configuration not stated)
14%	-8	-0.9%	-16%	COc1ccc(C(=O)NC(=S)Nc2ccc(CN3CCCCC3)cc2)cc1Cl
1%	5	2.8%	-46%	O=C(NCc1ccco1)c1cc(-c2cccc(Cl)c2)on1
-10%	/	4.4%	/	Cc1ccc(C(=O)NC(=S)NCc2ccccc2)cc1Br
2%	-11	-1.0%	-6%	O=C(Nc1nnc(CCN2CCCCC2)s1)C1CCCCC1
-5%	/	-1.6%	/	CNC(=O)C(C)Sc1ccc(S(=O)(=O)N2CCOCC2)cn1 (configuration not stated)
3%	/	-0.7%	-5%&-1%	Cc1cc2c(cc1S(=O)(=O)CCC(=O)NCc1ccccc1)OCC(=O)N2
10%	/	-0.1%	-1%	CCOC(=O)N1CCN(C(=O)c2ccc3c(Cl)c4c(nc3c2)CCCC4)CC1
13%	/	-0.4%	2%	O=C(NCc1ccccc1)/C(=C\c1ccc(O)cc1)NC(=O)c1ccco1

# Reprinted from the listing, 6 compounds:
Rango dissoc inh	GLA inh pH 4.5	Rango complex inh	miR-21 reporter	SMILES
1%	5	2.8%	-46%	O=C(NCc1ccco1)c1cc(-c2cccc(Cl)c2)on1
-10%	/	4.4%	/	Cc1ccc(C(=O)NC(=S)NCc2ccccc2)cc1Br
2%	-11	-1.0%	-6%	O=C(Nc1nnc(CCN2CCCCC2)s1)C1CCCCC1
-5%	/	-1.6%	/	CNC(=O)C(C)Sc1ccc(S(=O)(=O)N2CCOCC2)cn1 (configuration not stated)
3%	/	-0.7%	-5%&-1%	Cc1cc2c(cc1S(=O)(=O)CCC(=O)NCc1ccccc1)OCC(=O)N2
10%	/	-0.1%	-1%	CCOC(=O)N1CCN(C(=O)c2ccc3c(Cl)c4c(nc3c2)CCCC4)CC1

# Other records:
Rango dissoc inh	GLA inh pH 4.5	Rango complex inh	miR-21 reporter	SMILES
-10%	0	3.8%	3%	O=C(OCc1cccc2ccccc12)C1CC(=O)N(c2ccccc2)C1 (configuration not stated)
0%	-1	-1.4%	-1%	O=C(CSc1ncnc2c1oc1ccccc12)OCc1ccccc1
12%	7	8.9%	1%	CC(C)C(=O)Nc1nnc(CCN2CCOCC2)s1
9%	-4	-1.5%	-12%	COCc1cc(N2CCOCC2)nc(SCc2ccc(Cl)cc2)n1
14%	/	4.0%	0%	COc1ccc(C(=S)N2CCOCC2)cc1OC(=O)c1ccc([N+](=O)[O-])cc1
-9%	/	?	/	Cc1cc(C(=O)C(C)OC(=O)c2ccc(NC(=O)CC#N)cc2)c(C)n1-c1ccc(OC(F)F)cc1 (configuration not stated)
-16%	2	3.8%	2%	O=c1[nH]snc1N1CCOCC1
-2%	/	-0.9%	1%	CCC(=O)N(CCc1ccccc1)Cc1cc2cc(C)ccc2[nH]c1=O
-4%	0	-1.9%	-3%	CCOC(=O)CSc1ncnc2c(C(=O)OCC)c3n(c12)CCC3
9%	-6	5.2%	7%	COc1cccc(C2NC(c3cccc(OC)c3O)C(C)C(=O)C2C)c1O (configuration not stated)
?	1	?	-4%	CC1=CC(=C(C#N)c2nc3ccccc3s2)C=C(C)N1c1ccc(F)cc1F
-5%	2	1.2%	-4%	Cn1nc(-c2ccc(N3CCN(CCO)CC3)c([N+](=O)[O-])c2)c2ccccc2c1=O
1%	-5	?	-5%	COC(=O)C(NC(=O)c1ccc(C)cc1)(Nc1cccc(C)n1)C(F)(F)F (configuration not stated)
?	-10	?	-12%	Cc1cc(C)c2c(N)c(C(=O)c3ccc(Br)cc3)oc2n1
-2%	/	-1.4%	13%	CCc1ccc(CN2CCC(n3nccc3NC(=O)c3cccc(F)c3)CC2)cc1
-4%	/	3.2%	-1%	Cc1ccc(NC(=O)c2ccc(Cl)c(S(=O)(=O)NCC3CCCO3)c2)c(O)c1 (configuration not stated)
-2%	/	-1.5%	/	Cc1c(C)n2c(SCC(=O)N3CCCC3)nnc2[nH]c1=O
-10%	-1	-3.5%	-4%	COCCCNCC#CCOc1ccc(OC)cc1
1%	/	4.4%	/	C=CCNC(=O)c1c(CS(=O)(=O)c2ccccc2)noc1C(=O)NCc1ccccc1
6%	-3	-3.7%	-31%	Cc1cccnc1NC(=O)Nc1cccs1
-9%	-10	1.1%	-2%	O=C(CCNc1ccc(F)c(Cl)c1)c1ccco1
12%	/	5.1%	3%	C=CCc1cc(Cl)ccc1OCCOCCN(C)C
-8%	11	-0.7%	-9%	COC(=O)c1ccc(COn2c(=O)c(C)[n+]([O-])c3ccccc32)cc1
19%	/	-2.0%	-2%	CCOC(=O)c1cc(S(=O)(=O)N2CCN(Cc3ccccc3)CC2)cn1C
-11%	0	0.6%	-42%	CCOC(=O)c1c(C)c2c(n1C)CCC/C2=N\O
2%	1	0.8%	-1%	Cc1cccnc1NC1CCCCC1
-2%	3	-2.4%	-1%	Cn1c(=O)n(C)c2cc(S(=O)(=O)N3CCOCC3)ccc21
-8%	/	0.0%	-4%	Cc1ccc(C)c(/C=C2\CCn3c2nc2cc(C(=O)O)ccc2c3=O)c1
-1%	1	?	-1%	CCN1CCCC1CN(Cc1cc2cc(C)ccc2[nH]c1=O)C(=O)Nc1ccccc1OC (configuration not stated)
-3%	9	-3.9%	1%	NC(=O)c1ccccc1NS(=O)(=O)c1ccc(F)cc1
-4%	/	0.6%	-33%	Cc1cc(OCC(=O)NNC(=S)NCC2CCCO2)cc(C)c1Cl (configuration not stated)
-1%	/	-0.1%	0%	Cc1ccccc1NC(=O)c1cccc(C(=O)Nc2ccccc2C)n1
?	8	?	-2%	N#CC(C(=O)OC1CCCCC1)c1nc2ccccc2nc1N1CCOCC1 (configuration not stated)

# The list is partial. The share of hits here may be higher or lower than overall.
